Source: PubChem BioAssay
Autofluor counter: compound fluorescence in toxin protease inhibitor counterscreen; compound autofluorescence counterscreen, microsphere flow cytometry; hits give high values; actives 3.1% (n = 360,000); fluorescence intensity (no concentration beside the values); AID 624483;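 active = at least 3 SD above the mean of all compounds, about 16000 in these data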;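 also: 100 nL of 1 mM stock went into each well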
BJeLR viability: BJeLR cell viability loss. AID 1554. BJeLR (HRASV12) viability, CellTiter-Glo ATP luminescence, 48 h; reference of the scale not given here. inhibition, % (concentration not given with the values). actives 0.17% (n = 300,000);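 active = replicate mean above 50%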;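 also: 50 nL library stock added to about 25 µL; numbers are from one replicate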
Sa ugtP lethal: compounds lethal to S. aureus RN4220 ugtP deletion mutant | OD600 growth, 16 h; some inactives read as strong as hits | growth inhibition, % (no concentration beside the values) | actives 0.54% (n = 330,000);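 active = z-score under -3 and OD600 up to 0.15 on both plates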;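 also: plate controls were untreated wells for no effect and antibiotic for full effect; wells of about 80 µL received 100 nL stock; the first replicate is given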
Mtb hypoxia rep: Mtb hypoxia fluorescent reporter inhibition; M. tuberculosis hypoxia-regulated fluorescent reporter, fluorescence; fluorescence inhibition, % (no concentration beside the values); actives 0.1% (n = 300,000);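 active = 35 to 45% if threefold the growth effect, above 45% if 1.5-fold the growth effect; inactive = the rest, general growth blockers included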;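 also: wells of about 50 µL received 100 nL stock; 0% = vehicle wells and 100% = reference inhibitor wells; whole bacteria with a GFP reporter of the hypoxia response; strong numbers were not always called active; many hits fall short of the cut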
Sa RN4220 lethal: S. aureus RN4220 growth inhibition; OD600, 16 h; inhibition, % (no concentration beside the values); actives 0.33% (n = 330,000); AID 1259311;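 active = z-score of -3 or lower and OD600 up to 0.18 on both plates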;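 also: plate controls were untreated cells for no effect and reference antibiotic for full effect; stock transfer was 100 nL into about 80 µL; one replicate is shown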
PrP UTR inh: suppresses PrP 5' UTR mRNA reporter expression. cell-based PrP 5' UTR mRNA reporter, plate reader. inhibition, % (no concentration beside the values). actives 0.35% (n = 340,000). AID 488862;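 active = every replicate at 50% or more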;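 also: 0 = median of the neutral control wells; tested in H4 reporter cells; numbers are from one replicate; inactives centre near -14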
Mtb hypoxia rep growth: second read-out of Mtb hypoxia rep, no call of its own (marks repeat the call); growth inhibition, %; measured here: M. tuberculosis growth (absorbance);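 0% = vehicle and 100% = reference antibiotic; read after six days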
The depositor's hits bear a star; · = no result given.

SMILES	Autofluor counter	BJeLR viability	Sa ugtP lethal	Mtb hypoxia rep	Mtb hypoxia rep growth	Sa RN4220 lethal	PrP UTR inh
O=C(N/N=C/c1ccccc1OC(F)F)c1cc(-c2ccncc2)nc2ccccc12	4180	15	·	·	·	·	-34
O=C(NCc1ccccc1)C(C(=O)c1ccc(F)cc1)n1ccccc1=O (centres undefined)	4565	3	4	18	15	2.4	-5
COc1ccc(C(=O)Cc2cc(OC)c(OC)cc2[N+](=O)[O-])cc1	10798	-2	1	4	8	-0.8	-62
Cc1ccc(NC(=S)NCc2ccc(S(N)(=O)=O)cc2)cc1Cl	4306	5	-3	10	3	-13	-18
COCCn1c(SCC(=O)c2c(N)n(C3CC3)c(=O)[nH]c2=O)nnc1-c1ccc(Cl)cc1	8252	·	3	5	-1	1.9	-15
CCC(C)c1ccc(NC(=O)CC(C)=NNC(=O)c2cnccn2)cc1 (centres undefined)	·	·	5	4	10	6.5	·
COc1ccccc1NC(=O)C12CC3CC(C1)CC(c1ccc(C)cc1)(C3)C2	15567	3	-20	5	0	-3.3	-9
CC(C)N1CCN(CCCc2ccccc2)CC1CCO (centres undefined)	3186	2	6	2	0	0.2	-7
CCOC(=O)Cn1c(=O)sc2ccccc21	23284*	-3	3	4	4	2.8	-17
Cc1ccc(NC(=O)C2CCC2)cc1S(=O)(=O)N1CCCCCC1	5520	-9	3	2	-1	0.7	-22
CC(=O)N(Cc1ccccc1)C(CC(=O)NCc1ccccc1)C(=O)O (centres undefined)	3805	·	6	20	6	6.3	-16
N#Cc1ccc(OCC(=O)NC(=O)NC2CCS(=O)(=O)C2)cc1 (centres undefined)	·	·	2	8	1	-0.5	·
COc1ccc(NC(=O)CN(c2ccc(Cl)cc2)S(C)(=O)=O)cc1OC	3793	5	8	16	2	5.1	-11
COc1ccc(C2C(C#N)=C(N)Nc3nc4ccccc4n32)cc1 (centres undefined)	2056	-32	-3	8	2	6.3	-8
Cc1ccc(N2C(=O)C3N=NN(CC(=O)N4N=C(c5cccc6ccccc56)CC4c4ccccc4)C3C2=O)cc1 (centres undefined)	3742	-1	-15	0	-1	1.3	-6
CC(=O)N/C(=C\c1ccccc1)C(=O)OCC(=O)c1ccccc1	5640	0	5	6	2	4.8	-17
O=C(COC(=O)c1c(F)cccc1F)Nc1ccc2[nH]c(=O)[nH]c2c1	2364	-2	11	1	-2	6.2	-15
Cc1cccc(OCC(=O)NC2CC(C)(C)NC(C)(C)C2)c1	6127	-4	-3	1	-1	-1.7	-20
CCN1C(=O)/C(=C/N(C)C)c2ccccc21	16312*	-5	4	5	3	2.1	2
O=C(CNC(=O)C1CCCCC1)Nc1ccccc1	2093	4	7	12	8	-0.2	-32
O=C(Cc1ccccc1)N1CCN(Cc2ccccc2Cl)CC1	3116	-3	0	-9	2	3.4	1
COC(=O)Cn1cnc2c(nnn2-c2cccc(OC)c2)c1=O	3700	-1	3	-3	-6	0.5	-28
Cc1nc(CSc2ccc(Cl)cc2)cs1	3996	7	7	11	4	7.4	·
O=C(CCNC(=O)c1ccco1)NC(Cc1c[nH]c2ccccc12)C(=O)O (centres undefined)	3368	·	12	3	-8	6.0	-20
O=C1CN(C(=O)CSc2ccc(-c3ccc(F)cc3)nn2)c2ccccc2N1	3695	-2	14	-6	0	-5.7	10
OC(COC(c1ccccc1)c1ccccc1)CN1CCCCC1 (centres undefined)	3578	-6	-5	·	·	-7.2	-1
Clc1cccc(Cl)c1C[n+]1ccc2ccccc2c1	7798	7	5	20	2	-0.3	-23
COc1ccc(CC(=O)NCC2CCCN(Cc3ccc(F)c(OC)c3)C2)cc1 (centres undefined)	3470	3	11	-2	2	-0.4	9
CC(=NNC(=O)c1ccccc1O)c1cccs1	·	·	4	0	8	5.8	·
O=C1CC(c2ccc(S(=O)(=O)NCCOc3ccccc3)cc2)CN1 (centres undefined)	21883*	-2	-3	-4	8	0.8	-25
Nc1c(NCc2ccccc2F)c(=O)[nH]c(=O)n1Cc1ccccc1	3877	4	2	·	·	1.3	14
CC(C)(C)c1[nH]nc2c1C(c1ccncc1)C(C#N)=C(N)O2 (centres undefined)	3393	-3	0	5	11	4.9	-31
Cc1ccc(-c2csc(N=C(N)N)n2)cc1	3822	-13	·	·	·	·	-35
Cn1c(SCC(=O)Nc2cccc3ccccc23)nc(O)cc1=O	4258	7	-4	-6	0	0.8	4
N#Cc1c(N)n(-c2ccc(C(=O)O)cc2)c2nc3ccccc3nc12	4436	2	·	·	·	·	-151
CC(C)CC(C(=O)NC(C)(C)C)N(Cc1ccccc1Cl)C(=O)c1snc(C(N)=O)c1N (centres undefined)	3843	8	12	10	3	4.4	-20
CCOC(=O)C1CCCN(C(=O)c2cn(-c3ccccc3)nc2-c2cccnc2)C1 (centres undefined)	7098	-5	1	0	10	1.6	12
O=C(CSc1nnc(SCc2ccccc2)s1)N/N=C/c1c(Cl)cccc1Cl	2164	-6	·	·	·	·	-18
CC1CCN(c2nc3c(c(=O)[nH]c(=O)n3C)n2CCSc2ncccn2)CC1	4977	·	-7	-5	4	12	-12
Cc1nn(-c2ccccc2)c(Cl)c1C(=O)NCC(=O)O	2938	-2	9	4	4	6.7	8
Cn1c(O)c(C=NCCN2CCOCC2)c(=O)n(C)c1=S	6095	-1	2	-11	-4	2.0	-18
Cc1ccc(NC(=O)CC2S/C(=N/N=C/C=C/c3ccccc3)NC2=O)cc1Cl (centres undefined)	2012	-5	·	·	·	·	-17
NC(=O)CN(c1ccc(Cl)cc1)S(=O)(=O)c1ccccc1	2559	-4	0	12	4	0.6	-37
CC(=O)CC1(OC(C)=O)C(=O)N(C)c2ccccc21 (centres undefined)	4563	4	-4	16	9	7.7	-16
CCSc1ncccc1C(=O)N[C@@H](CCSC)C(=O)OC	·	14	4	8	9	0.4	·
O=C(O)c1ccc(CSc2nnc(-c3ccco3)n2-c2ccccc2)cc1	5035	-1	-4	7	9	4.2	-20
COc1ccc(NC(C#N)c2ccc(OC)cc2)cc1 (centres undefined)	16025	9	1	8	2	4.4	-17
Clc1ccccc1-c1nnc2sc(-c3cccs3)nn12	11367	-2	-18	11	6	7.4	·

Record cards (already shown).
`Cc1ccc(NC(=O)CC2S/C(=N/N=C/C=C/c3ccccc3)NC2=O)cc1Cl` (centres undefined) across the screens: Autofluor counter = 2012; BJeLR viability = -5; Sa ugtP lethal = ·; Mtb hypoxia rep = ·; Mtb hypoxia rep growth = ·; Sa RN4220 lethal = ·; PrP UTR inh = -17
`O=C(CSc1nnc(SCc2ccccc2)s1)N/N=C/c1c(Cl)cccc1Cl` across the screens: Autofluor counter = 2164; BJeLR viability = -6; Sa ugtP lethal = ·; Mtb hypoxia rep = ·; Mtb hypoxia rep growth = ·; Sa RN4220 lethal = ·; PrP UTR inh = -18

Part of the list above in order of formula weight, rising:
SMILES	Autofluor counter	BJeLR viability	Sa ugtP lethal	Mtb hypoxia rep	Mtb hypoxia rep growth	Sa RN4220 lethal	PrP UTR inh
CC(=O)CC1(OC(C)=O)C(=O)N(C)c2ccccc21 (centres undefined)	4563	4	-4	16	9	7.7	-16
Clc1ccccc1-c1nnc2sc(-c3cccs3)nn12	11367	-2	-18	11	6	7.4	·
CCSc1ncccc1C(=O)N[C@@H](CCSC)C(=O)OC	·	14	4	8	9	0.4	·
O=C(O)c1ccc(CSc2nnc(-c3ccco3)n2-c2ccccc2)cc1	5035	-1	-4	7	9	4.2	-20
CC1CCN(c2nc3c(c(=O)[nH]c(=O)n3C)n2CCSc2ncccn2)CC1	4977	·	-7	-5	4	12	-12
Cc1ccc(NC(=O)CC2S/C(=N/N=C/C=C/c3ccccc3)NC2=O)cc1Cl (centres undefined)	2012	-5	·	·	·	·	-17

The results go on.
SMILES	Autofluor counter	BJeLR viability	Sa ugtP lethal	Mtb hypoxia rep	Mtb hypoxia rep growth	Sa RN4220 lethal	PrP UTR inh
O=C1CCCc2c1[nH]c1ccccc21	9513	5	-6	11	6	5.7	-31
CCOC(=O)C1CSC(CC(=O)Nc2ccc(Cl)c(Cl)c2)C(=O)N1 (centres undefined)	3131	10	-1	·	·	4.9	-18
CCN1C(=O)/C(=C/C=C2/SCCN2C)SC1=S	4017	11	5	·	·	-2.8	-15
CCOc1ccc(NC(=O)CSc2nnc(Cc3cccn3C)n2-c2ccc(OC)cc2)cc1	11321	-4	2	3	1	0.2	-17
CC(C)CNC(=S)N1CCN(Cc2ccc3c(c2)OCO3)CC1	2624	5	1	22	19	2.7	-13
CC[C@]12c3[nH]c4ccccc4c3CCN1C(=O)C(CC(=O)NCCCOC)C[C@@H]2C(=O)N1CCN(C(=O)c2ccco2)CC1 (some centres undefined)	3455	·	4	4	-5	0.1	-29
O=C(NCc1cccnc1)C1c2ccccc2C(=O)N1C1CCCC1 (centres undefined)	5656	9	1	4	-1	2.2	-11
O=[N+]([O-])c1cc(-n2cnnn2)c(O)c([N+](=O)[O-])c1	5260	13	1	3	0	1.3	5
O=C1/C(=C\c2cccnc2)N2CCC1CC2	4607	-11	-6	2	-7	-1.0	-4
O=C(/C=C/c1ccco1)Nc1cc(Cl)ccc1C(=O)O	2637	-1	16	1	2	34	-18
Cc1cccc(NC(=O)CSC2=NN3CCCC(=O)N=C3S2)c1C	5788	7	3	3	9	1.3	-10
CCOC(=O)C1=C(C)N=C2SCCC(=O)N2C1c1cccs1 (centres undefined)	4295	2	0	·	·	1.2	-8
COc1ccc(OC)c(C(O)c2coc3ccc(O)c(CN(C)C)c23)c1 (centres undefined)	8957	-4	-1	11	16	3.4	-25
COc1ccccc1C(=O)NC(CCSC)C(=O)NCc1ccncc1 (centres undefined)	6302	·	7	14	7	-1.9	-18
Cc1ncsc1C(=O)NCc1ccc(N2CCCC2=O)cc1	16227*	3	13	0	-1	4.8	-4
Cc1ccc(NC(=O)CSCC(=O)N(C)CC(=O)Nc2cccc(F)c2)cc1	5451	5	5	3	-1	2.1	-7
CCc1c(C(=O)NN=Cc2ccco2)nnn1-c1nonc1N	·	·	0	10	-4	2.0	·
CC(CC(=O)Nc1ncc([N+](=O)[O-])s1)c1ccccc1 (centres undefined)	3546	·	25	1	5	30	-10
CC(=O)Nc1c(Br)cc2c(c1Br)Cc1cc([N+](=O)[O-])ccc1-2	4078	·	2	5	11	8.1	-6
Cc1nc2scc(-c3ccccc3)c2c(=O)n1/N=C/c1ccco1	2365	-6	·	·	·	·	-9
O=C(CN1CCc2cc3c(cc2C1)OCCCO3)Nc1cccc(Br)c1	5900	-9	-1	13	13	-8.1	-10
COc1ccccc1CNC(=O)CSc1ccc(Br)cc1	2479	-12	5	9	2	6.1	-5
CCOc1cc(CNc2ccc(S(N)(=O)=O)cc2)ccc1OCC(=O)NC(C)(C)C	3488	1	7	1	15	1.1	0
O=C(Oc1ccc(Br)cc1C(=O)/C=C/c1ccccc1F)c1ccco1	5464	6	21	-3	3	14	-27
COc1ccc(C=NNC(=O)c2ccncc2)cc1CSc1nc2ccccc2s1	·	·	1	23	9	7.5	·
N#Cc1cccc(Nc2c3c(nc4ccccc24)CCCC3)c1	2790	8	6	9	3	-1.9	-23
Cc1ccccc1NC(=O)OCc1cn(-c2ccc(Cl)cc2)nn1	22413*	1	-1	8	1	3.5	-9
NC(=O)C1CCN(CC(O)COCc2ccccc2Cl)CC1 (centres undefined)	3117	-4	-5	8	-5	-1.8	1
CC(C)(C)NCC(O)COc1ccccc1C1CCCC1 (centres undefined)	6381	·	-2	-3	6	2.5	-19
CCCCc1ccc(NC2=NCC(=O)N2CCc2ccccc2)cc1	4320	1	8	-6	13	4.4	-16
CCCCn1c(N)c(N(CCOC)C(=O)c2cc(S(=O)(=O)N3CCCCC3)ccc2Cl)c(=O)[nH]c1=O	5921	1	3	6	-12	0.3	-9
Cc1ccc(Oc2nnc(-c3ccc(C)cc3)c3ccccc23)cc1	7446	-10	32	9	11	-5.6	-25
Cc1ccn2cc(CCNS(=O)(=O)c3ccc4c(c3)OCCO4)nc2c1	4423	-4	-4	3	4	-9.0	-5
O=[N+]([O-])c1ccc(N2CCOCC2)cc1O	·	1	3	6	2	0.5	-16
Cc1ccc(C(c2nnnn2C2CCCCC2)N2CCN3CCCC3C2)cc1 (centres undefined)	4858	-6	20	23	4	1.8	-18
CCCCN(C)C(=O)Cn1nc(Cc2ccncc2)c2ccccc2c1=O	3812	-13	15	6	15	3.7	·
Cc1ccc(C)c(C(=O)N2CCC(n3nccc3NC(=O)C3CC3)CC2)c1	5074	-3	2	10	6	1.4	-8
Cc1cc(C(=O)OC(C)C(=O)Nc2cccc(Cl)c2)on1 (centres undefined)	5385	·	3	12	-1	-0.1	-24
